Beta cell apopt: beta cell apoptosis inhibition | INS-1E cytokine-induced death, ATP luminescence, 48 h; percent of positive-control rescue, neutral wells zero | protection from apoptosis, % (test concentration not listed) | actives 0.8% (n = 300,000);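 active = all replicates at 75% or more, or half of them and the mean; inconclusive = half reach 75% but not the mean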;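 also: 0% = cytokine-treated negative control wells and 100% = positive control rescue; higher means more ATP so stronger rescue from cytokine killing; wells of about 40 µL received 100 nL stock; the first replicate is given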
A1 inh: inhibitors of the anti-apoptotic protein A1, read as caspase activation; MEF A1-2A-BIM cells, Caspase-Glo 3/7 luminescence, 3 h; percent of clofoctol response, vehicle zero; caspase activation, % (concentration not given with the values); actives 0.066% (n = 330,000); AID 2462;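 active = over half of replicate activation scores above 10%, or exactly half above 10 with the replicate mean above 10; inconclusive = replicate mean below 10 yet half the replicates above 10; inactive = over half of replicates below 10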;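 also: wells of about 30 µL received 50 nL stock; many hits fall short of the cut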
T cruzi repl: T. cruzi replication inhibition; T. cruzi beta-gal in NIH3T3, luminescence, 90 h; inhibition, % (concentration not given with the values); actives 1.4% (n = 300,000);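 active = mean inhibition across valid replicates above about 55%, limit read from the data; inconclusive = mean below that limit but half or more replicates reach it; inactive = mean below it, under half of replicates reach it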;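 also: signal also drops with host cell toxicity which is not excluded here; 0% = plate median of DMSO wells and 100% = zero luminescence signal; higher percent means less beta-gal luminescence so fewer parasites; stock transfer was 50 nL into about 50 µL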
UCH37 DUB inh: blocks the human deubiquitinase UCH37; inhibition, % (no concentration beside the values); actives 0.33% (n = 330,000); purified proteasome/UCH37, Ub-AMC cleavage fluorescence;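 active = mean of two replicates above 20%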;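 also: 0% = compound-free wells with enzyme and 100% = wells lacking proteasome; stock transfer was 100 nL into about 20 µL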
Target sequence (Q9Y5K5 whole entry, looked up): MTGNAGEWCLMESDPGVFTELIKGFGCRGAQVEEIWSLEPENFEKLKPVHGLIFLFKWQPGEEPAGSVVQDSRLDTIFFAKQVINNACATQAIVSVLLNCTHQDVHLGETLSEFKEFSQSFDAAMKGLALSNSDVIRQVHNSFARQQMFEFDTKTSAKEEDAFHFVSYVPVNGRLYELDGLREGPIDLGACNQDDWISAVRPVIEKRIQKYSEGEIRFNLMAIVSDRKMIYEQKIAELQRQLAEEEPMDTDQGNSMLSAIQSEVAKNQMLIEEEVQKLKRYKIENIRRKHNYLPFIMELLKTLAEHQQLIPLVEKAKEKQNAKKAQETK
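Test system – human UCH37 enzyme supplied as purified proteasome complex · Incubation – 30 min preincubation with enzyme, 25 min cleavage at room temperature · Detection – AMC fluorescence from Ub-AMC cleavage, excitation 355 nm, emission 460 nm · Benchmarks – no-proteasome wells (full inhibition) and compound-free wells (no inhibition)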
Starred values were filed as active, the others as inactive; ? = inconclusive; . = not tested or not shown. Only part of the results is shown; count on the stated rates, not on these rows.

SMILES | Beta cell apopt | A1 inh | T cruzi repl | UCH37 DUB inh
Cc1ccc(CN2C(=O)C3CCCN3c3ccc(C#N)cc32)cc1 (centres undefined) | -1 | -0.4 | -45 | .
COc1ccc(/C=N\NC(=O)C2=NNC(=O)C2C)cc1 (centres undefined) | 10 | -6.3 | -12 | .
O=C(N/N=C/c1ccc(OCC(=O)N2CCCCC2)cc1)c1ccccc1O | -4 | 1.1 | -14 | .
C/C(=N\O)c1ccc(N2C(=O)C3CC=C(Cl)CC3C2=O)cc1 (centres undefined) | 19 | -0.4 | -14 | .
COCC(=O)N/N=C(\C)CC(=O)Nc1ccccc1C(N)=O | -10 | -1.1 | 4 | .
Clc1ccc(Cl)c(-c2ccc(/C=N/c3ncn[nH]3)o2)c1 | -3 | 0.7 | 2 | .
CS(=O)(=O)/C(C#N)=C\c1cnc(S(=O)(=O)c2ccccc2)s1 | 7 | 0.2 | 1 | .
COC/C=C/C1=CC2=CC(=O)C(C)(OC(=O)c3cnc4ccccc4n3)C(=O)C2=CN1C1CCCCC1 (centres undefined) | -5 | 0.3 | -4 | .
O=[N+]([O-])c1ccc(/C=N/Nc2nc(N3CCCCC3)nc(N3CCCCC3)n2)o1 | 47 | 1.8 | 63* | .
O=c1[nH]c2cc3c(cc2cc1C(c1nnnn1C1CCCC1)N1CCSCC1)OCCO3 (centres undefined) | 0 | -0.7 | -5 | .
O=C(COc1ccc(Cl)cc1)N/N=C/CCc1ccccc1 | 3 | 0.4 | -15 | .
CC12CCC(C(=O)Nc3ccccc3)(C/C1=N\O)C2(C)C (centres undefined) | -4 | 0.1 | -2 | .
O=C(N/N=C/c1cccc(Oc2ccc([N+](=O)[O-])cc2[N+](=O)[O-])c1)c1cncc(Br)c1 | -1 | -0.1 | 38 | .
CC(O)C(=O)N/N=C/c1cccc(Cl)c1Cl (centres undefined) | -3 | -0.6 | -19 | .
COC(=O)c1ccc[n+](CC(=O)c2ccc(Br)cc2)c1 | -5 | -0.1 | -9 | .
Cc1ccc2c(c1)cc1c(=O)[nH]ncn12 | 3 | 1.3 | -12 | .
Cc1ccsc1C(=O)N/N=C/c1ccc([N+](=O)[O-])cc1 | 2 | -11 | -1 | .
COc1ccc(Cn2c(N)c(C#N)c3nc4ccccc4nc32)cc1 | -8 | -0.1 | 14 | .
Cc1scc(C(=O)N/N=C/c2ccco2)c1C | -2 | -3.6 | -13 | .
COc1ccc(N2CC(C(=O)Nc3nnc(SCC(=O)c4ccccc4)s3)CC2=O)cc1 (centres undefined) | -4 | 0.3 | 7 | .
COc1ccc2oc(-c3ccc(NC(=O)c4ccc(N5CCOCC5)c([N+](=O)[O-])c4)cc3)nc2c1 | 14 | 0.5 | -27 | .
COc1cc(/C=N/NC(=O)c2ccccc2)ccc1OS(=O)(=O)c1ccccc1 | 4 | -0.4 | 26 | .
CC(=O)CCCCn1cnc2c1c(=O)n(C)c(=O)n2C | 6 | -0.5 | -13 | .
CCCN(CC1COc2ccccc2O1)C(=S)Nc1ccc(C)cc1 (centres undefined) | -11 | -0.1 | -13 | .
Cc1ccc(O)c(NC(=S)NC(=O)c2ccc(-c3ccc(Cl)cc3)o2)c1 | ? | 0.0 | -13 | .

Continued:
SMILES | Beta cell apopt | A1 inh | T cruzi repl | UCH37 DUB inh
O/N=C/c1cc(Br)cc(Br)c1OCc1ccccc1 | -4 | 1.0 | -1 | .
Oc1ccc(/C=N/n2c(-c3ccco3)csc2=Nc2cccnc2)c(O)c1 | 5 | -0.4 | 4 | .
CN(/C(=N\S(=O)(=O)c1ccccc1)C(F)(F)F)c1ccccc1 | 1 | 0.4 | 8 | .
COc1cc(OC)c(OC)cc1/C=N/n1c(C)nnc1C | -3 | 1.0 | -5 | .
COc1cc(-c2nc3ccccn3c2/N=C/c2cc(OC)c(OC)c(OC)c2)ccc1O | -10 | -2.1 | 9 | .
CCOC(=O)c1sc2ncn(/N=C/N(C)C)c(=O)c2c1C | 1 | 0.3 | 3 | .
CCOC(=O)N/N=C/c1cccc(Cl)c1Cl | -2 | 1.2 | 7 | .
C/C(=N\NC(=O)c1c(Cl)c(C)nn1C)c1ccc(NC(=O)c2ccncc2)cc1 | 2 | 0.1 | -7 | .
O=[N+]([O-])c1ccc(/C=N/n2c(CO)nc3ccccc32)s1 | 81* | 0.8 | 67* | .
O=C1N/C(=N\N=C\c2cccs2)SC1Cc1ccc(Cl)cc1Cl (centres undefined) | -5 | 0.1 | -25 | .
CCc1ccccc1OCCCOc1ccc(OC)cc1 | -1 | 0.0 | -2 | .
Oc1c(Cl)cc(Cl)cc1/C=N/c1nc(-c2ccc(Cl)cc2)cs1 | -4 | 0.7 | -4 | .
COc1cc(/C=N/NC(=O)CCc2ccccc2)ccc1O | 3 | -0.4 | -8 | .
CCOC(=O)c1cc(CC)sc1/N=C/C1C(=O)CC(C)(C)CC1=O | 0 | 0.5 | -6 | .
O=S(=O)(NCc1cccs1)c1ccc(Br)s1 | -19 | 0.7 | -1 | .
CCCN1C(=O)C(O)(C/C(C)=N/O)c2ccccc21 (centres undefined) | 2 | 0.4 | -13 | .
COc1ccc(/C=N/n2cncn2)cc1Cn1nc(C)c([N+](=O)[O-])c1C | 6 | 0.4 | -16 | .
O=C(O)CC1S/C(=N/N=C/C=C/c2ccccc2[N+](=O)[O-])NC1=O (centres undefined) | -2 | 0.2 | -6 | .
O=C(Cn1nc(C(F)F)cc1C(F)F)N/N=C/c1ccc2c(c1)OCO2 | 1 | -2.3 | -1 | .
COc1ccc(CSCC(=O)N/N=C/c2ccc(OCC(=O)NCc3ccco3)cc2)cc1 | -5 | -0.1 | 8 | .
Cc1cc(C)c(/C=N/NC(N)=O)c(C)c1/C=N/NC(N)=O | -6 | 0.7 | -35 | .
Cc1nonc1C(=O)N/N=C/c1cccc(O)c1 | 0 | -10 | -17 | .
CC(C)(C)OC(=O)NCCCC1=CC2=CC(=O)C(C)(OC(=O)c3ccc(Cl)nc3)C(=O)C2=CO1 (centres undefined) | -3 | 0.5 | -1 | .
COc1ccc(/C(C)=N/Nc2ccc(C(=O)O)cc2)c(OC)c1 | -8 | 0.7 | -2 | .
CS/C(N)=N/N=C/c1ccc([N+](=O)[O-])cc1 | -2 | -1.9 | 2 | .

More structures follow.
SMILES | Beta cell apopt | A1 inh | T cruzi repl | UCH37 DUB inh
COC(=O)c1ccc(CNC(=O)c2c3c(nc4ccccc24)CCN(Cc2ccccc2)C3)cc1 | -8 | -0.6 | 27 | .
COC(=O)N/N=C/c1cc(Cl)cc(Cl)c1OCc1ccccc1F | 5 | -0.5 | 24 | .
CC1CCN(c2ccc(/C=N/n3nnnc3N)cc2[N+](=O)[O-])CC1 | 5 | 1.1 | 12 | .
CC1(C)S/C(=N/N=C/c2cccs2)NC1=O | -3 | -0.2 | -45 | .
Cn1nc(C(F)(F)F)c(/C=N/OC(=O)c2ccc(Cl)cc2)c1Cl | -7 | 1.1 | 0 | .
COc1ccc2c(c1[N+](=O)[O-])CCC/C2=N/OC(=O)c1cccc2ccccc12 | -14 | 0.0 | -18 | .
COc1ccc(/C=N/NC(=S)Nc2ccccc2)cc1COc1ccc(F)cc1F | 8 | -0.1 | 12 | .
COC(=O)/C(=N/Nc1ccccc1C)N1CCCc2ccccc21 | 1 | 0.1 | 7 | .
O=[N+]([O-])c1ccc(-c2ccc(/C=N/Nc3nc(NCc4ccccc4)nc(N4CCOCC4)n3)o2)cc1 | 26 | 0.3 | 27 | .
COc1nc(N=C(N)N)nc2c(C)cccc12 | 3 | 0.4 | 44 | .
COc1ccc(/C=N/NC(=O)c2ccccc2Cl)cc1CSc1nc2ccccc2s1 | 16 | 1.4 | 27 | .
O=C(NCCNc1ccc2ccccc2c1)c1cccn2c(=O)c3sccc3nc12 | 24 | 0.0 | 17 | .
Cc1ccsc1/C=N/NC(=O)Cn1cnc2ccccc21 | -6 | 0.5 | -11 | .
O=C(CN1CCCCCCC1)N/N=C/c1ccccc1F | -1 | 0.3 | -31 | .
CCn1c(SCC(=O)Nc2ccc(NC(=O)c3ccco3)cc2)nnc1-c1cccs1 | 2 | 0.5 | 0 | .
O=C(N/N=C/c1ccc2c(c1)OCO2)c1sc2cc(Cl)ccc2c1Cl | 30 | 0.1 | -11 | .
COc1cc(/C=N\NC(=O)c2ccc(=O)[nH]n2)cc(OC)c1OC | 12 | 0.4 | -16 | .
N#Cc1ccccc1NCc1ccccc1 | -2 | -0.6 | -6 | .
Cc1ccc2nc(Cl)c3nnnn3c2c1 | -15 | 0.5 | 44 | .
Cc1sc(NC(=O)C2C3CCC(O3)C2C(=O)O)nc1-c1ccc(CC(C)C)cc1 (centres undefined) | 2 | -5.4 | -9 | .
CC(=O)NS(=O)(=O)c1ccc(N=c2ssc3c2-c2cc(C)ccc2NC3(C)C)cc1 | -1 | 0.9 | 0 | .
Cc1c(/C=N/n2cnnc2)c2ccccc2n1CCOc1ccc(Cl)cc1 | 7 | -0.7 | 18 | .
Cc1c(/C(Cc2ccccc2)=N/O)c2ccccc2n1C | -1 | 0.2 | -6 | .
O=[N+]([O-])c1cc(/C=N/O)ccc1SCc1ccccc1 | 3 | -0.5 | 16 | .
Cc1nn(-c2cccc(C(F)(F)F)c2)c(Cl)c1/C=N/n1cnnc1 | -9 | 0.0 | -13 | .

One compound at a time (already shown).
Results for Cc1c(/C=N/n2cnnc2)c2ccccc2n1CCOc1ccc(Cl)cc1 : Beta cell apopt = 7; A1 inh = -0.7; T cruzi repl = 18; UCH37 DUB inh = .
Results for CC1(C)S/C(=N/N=C/c2cccs2)NC1=O : Beta cell apopt = -3; A1 inh = -0.2; T cruzi repl = -45; UCH37 DUB inh = .
Results for O=C(CN1CCCCCCC1)N/N=C/c1ccccc1F : Beta cell apopt = -1; A1 inh = 0.3; T cruzi repl = -31; UCH37 DUB inh = .

Another view of some results above:
COc1cc(/C=N\NC(=O)c2ccc(=O)[nH]n2)cc(OC)c1OC
  Beta cell apopt: 12; A1 inh: 0.4; T cruzi repl: -16; UCH37 DUB inh: .
N#Cc1ccccc1NCc1ccccc1
  Beta cell apopt: -2; A1 inh: -0.6; T cruzi repl: -6; UCH37 DUB inh: .
Cc1ccc2nc(Cl)c3nnnn3c2c1
  Beta cell apopt: -15; A1 inh: 0.5; T cruzi repl: 44; UCH37 DUB inh: .
Cc1sc(NC(=O)C2C3CCC(O3)C2C(=O)O)nc1-c1ccc(CC(C)C)cc1 (centres undefined)
  Beta cell apopt: 2; A1 inh: -5.4; T cruzi repl: -9; UCH37 DUB inh: .

Other compounds:
SMILES | Beta cell apopt | A1 inh | T cruzi repl | UCH37 DUB inh
O=c1c2ccccc2nc(N/N=C/c2ccc(O)cc2)n1O | -1 | -3.9 | -12 | .
O=C(Nc1ccc(Cl)c(Cl)c1)Nc1nc(-c2ccccc2)cs1 | 25 | -1.1 | 64* | .
CC/C(=N/Nc1ccccc1)c1cnnc(-c2ccccc2)n1 | 31 | -0.4 | 22 | .
COc1ccc(C2NC3=C(CCCC3)C(C#N)(C#N)C2(C#N)C#N)cc1 (centres undefined) | -6 | 0.2 | -32 | .
CCOC(=O)N1CCN(C(=O)c2cn(CC)c3cc(N4CCN(C)CC4)c(F)cc3c2=O)CC1 | -6 | -0.3 | -1 | .
COC1=C(N)C(=O)c2nc(-c3nc(C(=O)O)c(C)c(-c4ccc(OC)c(OC)c4O)c3N)ccc2C1=O | . | . | . | 82*
Cc1sc2ncnc(NN=Cc3ccccc3O)c2c1C | . | . | . | -5.9
C=C(C)C(=O)O[C@H]1CC(C)=CC(=O)C=C(C)[C@H](O)[C@@H]2OC(=O)C(=C)[C@@H]21 | . | . | . | -4.2
O=C(NN=Cc1cc(Br)c(Br)o1)c1cncc(Br)c1 | . | . | . | 5.6
CC(CCN1CCCCc2nc(C)c(C)cc21)=NO[C@@H](C)CN1CCCCc2nc(C)c(C)cc21 | . | . | . | -2.5

Source: PubChem
